Screening results from PubChem BioAssay.
RecA intein inh: blocks M. tuberculosis RecA intein splicing; cell-free RecA intein splicing, fluorescence; 290,000 compounds, 0.75% hits; P9WHJ3; inhibition, %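 (about 9 µM by stock and volumes)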; in the data active means inhibition above about 30%; inconclusive means no clear call, values can overlap the other calls;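 further: 0% = vehicle wells and 100% = reference inhibitor control wells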
Target sequence (P9WHJ3 whole entry, looked up): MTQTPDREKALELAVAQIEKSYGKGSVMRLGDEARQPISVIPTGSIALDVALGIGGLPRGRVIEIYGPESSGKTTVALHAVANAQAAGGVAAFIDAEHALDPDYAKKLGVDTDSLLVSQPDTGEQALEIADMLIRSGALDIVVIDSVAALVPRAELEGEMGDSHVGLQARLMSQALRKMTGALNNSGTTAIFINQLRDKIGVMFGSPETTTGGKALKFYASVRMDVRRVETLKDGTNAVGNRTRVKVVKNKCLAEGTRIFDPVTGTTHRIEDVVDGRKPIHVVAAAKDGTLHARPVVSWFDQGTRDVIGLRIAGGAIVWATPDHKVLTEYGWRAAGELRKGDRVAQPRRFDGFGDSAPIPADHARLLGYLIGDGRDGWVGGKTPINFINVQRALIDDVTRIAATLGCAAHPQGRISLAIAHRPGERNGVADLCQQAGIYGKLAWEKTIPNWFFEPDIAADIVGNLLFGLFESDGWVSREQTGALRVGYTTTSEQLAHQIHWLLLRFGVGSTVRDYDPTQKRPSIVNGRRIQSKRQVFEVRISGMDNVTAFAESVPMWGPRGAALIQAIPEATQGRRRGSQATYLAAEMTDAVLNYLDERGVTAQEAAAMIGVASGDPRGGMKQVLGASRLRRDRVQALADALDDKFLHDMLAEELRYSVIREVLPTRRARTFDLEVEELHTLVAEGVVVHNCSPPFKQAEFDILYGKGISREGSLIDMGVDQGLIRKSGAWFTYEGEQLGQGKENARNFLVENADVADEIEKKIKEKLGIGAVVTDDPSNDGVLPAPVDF
Mtb betalactam: beta-lactam sensitization of Mtb H37Rv; M. tuberculosis H37Rv growth with meropenem, percent inhibition; hits of this screen are not shown here; inhibition, % at 25 µM; 330,000 compounds, 0.27% hits; AID 434955;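 active means about 74% or more and at least 40 points above the plate without the antibiotic, then above 30% in a dose series; inconclusive means first-round hits that could not be retested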;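 further: growth measured after seven days incubation then overnight dye step; 0% = bacteria only wells and 100% = bacteria with antibiotic; twin plates without the antibiotic show which effects depend on it; some results filed as inactive read as strong as hits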
YopH PTP inh: blocks Yersinia enterocolitica YopH tyrosine phosphatase; fluorescence Ex485/Em525; 140,000 compounds, 0.16% hits; inhibition, %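 (about 10 µM by stock and volumes)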;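 active means inhibition of 50% or more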;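 further: controls were vehicle for no effect and minimum signal wells for full effect; inactives centre near -20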
Arbovirus inh: arbovirus infection inhibition; arbovirus infection cell-based antiviral screen; inhibition, % at 10 µM; 200,000 compounds, 0.37% hits; AID 1251;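 active means inhibition from about 30%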;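 further: bluetongue infection of BSR cells; cell survival read as ATP light after 72 h; 0% = infected wells without compound and 100% = uninfected wells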
Mtb H37Rv: M. tuberculosis H37Rv growth inhibitors, H37Rv strain (AID 1626); inhibition, % at 10 µM, or IC50 in µM where a hit was titrated; 220,000 compounds, 0.95% hits; M. tuberculosis H37Rv growth inhibition; higher % means a stronger effect;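 active means confirmed in a dose series; inconclusive means inhibition above 80% but not taken into the dose series; inactive means below 80% or under 30% at every dose of the series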;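 further: bacteria incubated seven days before Alamar blue readout; 0% = bacteria only wells and 100% = bacteria with antibiotic wells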
Arbovirus inh repeat: also measured in Arbovirus inh; calls as there; inhibition, %; measured here: 10K subset replicate screen; many hits read low in the repeat;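 first of two repeat runs on a subset; 0% = infected and 100% = uninfected wells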
* marks the source's active call; other numbers are inactive results; ? = inconclusive; nt = no result given. Not all compounds are listed; the hit share may differ from the screen's.

SMILES | RecA intein inh | Mtb betalactam | YopH PTP inh | Arbovirus inh | Mtb H37Rv | others
S=C(Nc1ccc(Cl)cc1Cl)N1CCCCC1 | 1.1 | 3 | -34 | -8 | 0%
O=Cc1cc([N+](=O)[O-])ccc1N1CCN(Cc2ccc3c(c2)OCO3)CC1 | 3.0 | -10 | nt | nt | nt
Cc1ccc2oc(=O)c3cnn(CC(=O)N4CCCc5ccccc54)c3c2c1 | -0.7 | -1 | 6 | -6 | 3% | Arbovirus inh repeat=-5
CCN(CC)CCOC(=O)c1cccc2c1-c1ccccc1C2O (stereo unspecified) | 4.4 | -8 | nt | nt | -6%
CCCCCCC(=O)Cc1cc(OC)c(OC)cc1C=C(C(=O)OCC)C(=O)OCC | nt | nt | 24 | 12 | -7%
CCCC(=O)NCCCc1nc2ccccc2n1CCC | -8.2 | ? | -15 | 3 | -10% | Arbovirus inh repeat=-2
CC(OC(=O)c1ccccc1C(=O)N(C)c1ccccc1)C(=O)Nc1ccc(C(N)=O)cc1 (stereo unspecified) | -0.9 | 1 | nt | nt | nt
CCOCCCNC(=O)c1cc2c(=O)n3ccccc3nc2s1 | -135 | -3 | nt | nt | nt
N#CC(c1ccc(Cl)nn1)c1ccccc1Cl (stereo unspecified) | 7.8 | -7 | -18 | 0 | -6%
O=C(/C=C/c1ccccc1[N+](=O)[O-])Nc1ccccc1 | 1.4 | -6 | nt | 1 | 0%
CCS(=O)(=O)NCC(c1cccnc1)N1CCN(c2ccccc2)CC1 (stereo unspecified) | 0.7 | 1 | 8 | 6 | 3%
Oc1oc(-c2ccccc2Br)nc1/C=N/c1ccccn1 | 6.8 | 5 | nt | 12 | -4%
Cc1ccc(C(=O)NNC(=O)c2cc3ccccc3cc2O)cc1 | -2.4 | -2 | nt | nt | nt
CC(C)n1nc(C(=O)Nc2nnc(C3CC3)s2)c2ccccc2c1=O | 2.7 | 2 | nt | 4 | 0%
Cc1cccc(C(=O)N/N=C2/SCC(=O)N2Cc2ccccc2)c1 | 0.4 | -12 | nt | 0 | -1%
Cc1ccc(-n2nc3c(SCCN4CCOCC4)nnc(C)c3c2C)cc1 | 0.9 | -6 | -15 | -5 | 0%
COc1ccccc1Nc1nc(N)nc(CN2CCN(c3ccccc3)CC2)n1 | 14 | 94 | -29 | 2 | 69%
CSc1ccccc1C(=O)NC1CCCc2ccccc21 (stereo unspecified) | -1.3 | 89 | nt | nt | nt
CCOC(=O)c1cnc(-c2ccccc2)nc1Oc1ccccc1 | 8.8 | 82 | -35 | 8 | 11%
CC1=CC(C)C(/C=N/N=C(N)N)C(C)C1 (stereo unspecified) | 2.0 | -12 | nt | nt | -6%
CCOC(=O)C1CCN(C(=O)CCCN2C(=O)c3ccccc3C2=O)CC1 | 4.1 | -6 | 0 | 6 | -7%
CCC(=O)Oc1c(C(=O)CC)cc2c(C)cc(=O)oc2c1C | -9.6 | 1 | -25 | -5 | 14%
CCOC(=O)c1nnn(-c2nonc2N)c1CN1CCCC1 | -0.8 | 2 | nt | nt | nt
N#Cc1nc(Cc2cccc3ccccc23)oc1N1CCN(c2ccccc2)CC1 | -4.5 | -10 | -20 | 13 | 6%
Cc1cc(OC(=O)c2ccccc2C)c([N+](=O)[O-])c(=O)[nH]1 | -2.3 | -8 | nt | nt | nt
O=S(=O)(Nc1ccccn1)c1cnc(Cl)c(Br)c1 | 1.8 | 3 | -12 | -2 | -1%
Cn1cnnc1SCC(=O)Nc1nc(-c2ccc(F)cc2)cs1 | -1.6 | -1 | nt | -4 | -2%
O=C(Nc1ccccc1)C1=C[C@H](C2CCCCC2)C[C@H](OCCCCO)O1 | 3.6 | 22 | nt | nt | 7%
O=C(NCCN1CCOCC1)C1CCN(Cc2ccccc2O)CC1 | -3.6 | 2 | -21 | 3 | -17%
c1coc(-c2nnc3n2C2(CCCC2)Cc2ccccc2-3)c1 | 1.8 | 6 | 20 | 11 | -1%
Cc1ccccc1Oc1nc2c(c(=O)n(C)c(=O)n2C)n1C | 0.3 | -7 | nt | nt | nt
CC1=C(C)CS(=O)N(S(=O)(=O)c2ccc(Cl)cc2)C1 (stereo unspecified) | 5.0 | -8 | -19 | -5 | -12%
O=C1CCC(=O)N(c2ccccc2)N1 | -2.5 | 5 | nt | nt | nt
COc1ccccc1CNC(=O)c1ccoc1C | 2.6 | nt | -21 | -4 | -15%
CCCCNS(=O)(=O)c1ccc2nc(-c3cccnc3)cc(C(=O)NC3CC3)c2c1 | 4.4 | -6 | -27 | -9 | nt
CCn1c(SC)nnc1C1CCN(CC(=O)Nc2ccccc2N2CCOCC2)CC1 | -1.0 | -16 | nt | nt | nt
CCc1ccc(N(C(=O)c2ccco2)C(C(=O)NC2CCCC2)c2ccncc2)cc1 (stereo unspecified) | 1.3 | -3 | nt | nt | nt
C=CCNC(=S)N1CCN(S(=O)(=O)c2ccc(C)cc2)CC1 | -1.5 | -11 | nt | nt | -2%
Cc1ccccc1NC(=O)CCCC(=O)c1ccccc1 | 0.5 | 6 | nt | nt | nt
Fc1ccc(-c2cc(C(F)(F)F)nc(N3CCCCC3)n2)cc1 | nt | -9 | -27 | 0 | 4%
Cc1cccc(N2C(=O)CSC2c2cccnc2)c1 (stereo unspecified) | 4.5 | -6 | -29 | 11 | -4%
CN1CCN(Cc2nc3ccccc3c(=O)n2CC#N)CC1 | -0.6 | 1 | nt | 3 | -7%
O=C(NCc1ccccn1)c1ccc(Cn2c(=S)[nH]c3ccc(Br)cc3c2=O)cc1 | -1.6 | 0 | nt | -10 | 72%
CCC(C)(C(=O)NC1CCCCC1)N(C(=O)CNC(C)=O)c1c(C)n(C)n(-c2ccccc2)c1=O (stereo unspecified) | -3.3 | 9 | -12 | 1 | -8%
CC(=O)Nc1ccc(C(=O)OCC(=O)NC(=O)NC2CCCCC2)cc1 | -18 | 7 | -35 | 2 | 3%
COC(=O)C1CCN(c2nc3ccccc3nc2C(C#N)C(=O)NCCc2ccccc2)CC1 (stereo unspecified) | -46 | -16 | -26 | 8 | 3%
Cc1ccc(C(=O)Nc2ccc(C)c(S(=O)(=O)Nc3ccccc3Cl)c2)s1 | 15 | 6 | -26 | 8 | 8%
CCOc1ccc(NC(=O)C(C)Oc2ccccc2C(=O)Nc2cccc(Cl)c2Cl)cc1 (stereo unspecified) | -0.7 | -3 | -11 | 5 | -6%
COCCN(Cc1ccc(F)cc1)C(=O)c1cc2ccccc2oc1=O | 0.9 | -1 | nt | nt | nt
CCCn1c(SCC(=O)Nc2ccccc2-c2ccccc2)nnc1-c1ccoc1C | 5.0 | 9 | -30 | -22 | -3%
CN(C)CCn1c2c(c(SCC(=O)Nc3cccc4ccccc34)nc1=O)CCCC2 | 1.6 | -16 | nt | nt | nt
CCOC(=O)c1cn2nc(-c3ccc(OC)cc3)cc2nc1C1CCN(C(=O)OC(C)(C)C)CC1 | 0.4 | 4 | -25 | 5 | 5%
CCCCC#Cc1ccc(C(=O)NNC(=O)Nc2cc(Cl)cc(Cl)c2)o1 | 0.6 | -2 | nt | nt | -3%
COc1cc(OC)c(OC)cc1CN1CCN(C(=O)c2cccc3ccccc23)CC1 | -0.2 | -3 | nt | nt | nt
O=C(O)c1cccc(NC(=O)c2ccc3c(c2)C(=O)N(c2cccc([N+](=O)[O-])c2)C3=O)c1 | -1.1 | -1 | nt | nt | nt
CCCn1nnnc1SCC(=O)Nc1sc(C)c(C)c1C#N | 4.1 | -10 | nt | nt | -8%
Cc1ccc(-c2cc(C(=O)Nc3ccc4c(c3)OCCO4)c3ccccc3n2)cc1 | 4.2 | 27 | -4 | -12 | 12%
COc1ccc(/C=C/C(=O)NC2=NCCS2)cc1OC | -1.2 | -8 | nt | 7 | 1%
CC1CCN(S(=O)(=O)c2ccc(NC(=O)c3ccncc3)cc2)CC1 | 0.5 | -3 | nt | nt | nt
CCC1C(C#N)=C(N)OC2=C1C(=O)CC(C)(C)C2 (stereo unspecified) | -0.4 | ? | -20 | -4 | -2%

Some of these compounds in order of formula weight, lowest first:
SMILES | RecA intein inh | Mtb betalactam | YopH PTP inh | Arbovirus inh | Mtb H37Rv | others
CCC1C(C#N)=C(N)OC2=C1C(=O)CC(C)(C)C2 (stereo unspecified) | -0.4 | ? | -20 | -4 | -2%
COc1ccc(/C=C/C(=O)NC2=NCCS2)cc1OC | -1.2 | -8 | nt | 7 | 1%
CCCCC#Cc1ccc(C(=O)NNC(=O)Nc2cc(Cl)cc(Cl)c2)o1 | 0.6 | -2 | nt | nt | -3%
COc1cc(OC)c(OC)cc1CN1CCN(C(=O)c2cccc3ccccc23)CC1 | -0.2 | -3 | nt | nt | nt
O=C(O)c1cccc(NC(=O)c2ccc3c(c2)C(=O)N(c2cccc([N+](=O)[O-])c2)C3=O)c1 | -1.1 | -1 | nt | nt | nt
CCOC(=O)c1cn2nc(-c3ccc(OC)cc3)cc2nc1C1CCN(C(=O)OC(C)(C)C)CC1 | 0.4 | 4 | -25 | 5 | 5%

Three records picked at random from the list so far, as already listed:
SMILES | RecA intein inh | Mtb betalactam | YopH PTP inh | Arbovirus inh | Mtb H37Rv | others
CCCn1c(SCC(=O)Nc2ccccc2-c2ccccc2)nnc1-c1ccoc1C | 5.0 | 9 | -30 | -22 | -3%
O=C(O)c1cccc(NC(=O)c2ccc3c(c2)C(=O)N(c2cccc([N+](=O)[O-])c2)C3=O)c1 | -1.1 | -1 | nt | nt | nt
Cc1ccc(-c2cc(C(=O)Nc3ccc4c(c3)OCCO4)c3ccccc3n2)cc1 | 4.2 | 27 | -4 | -12 | 12%

Next part
SMILES | RecA intein inh | Mtb betalactam | YopH PTP inh | Arbovirus inh | Mtb H37Rv | others
CCOC(=O)CSc1nc(C)c(C(=O)OCC)s1 | 1.8 | 99 | 43 | 5 | ?
Cn1cc(CN2CCc3sccc3C2)c(-c2ccccc2F)n1 | -1.6 | -6 | nt | -4 | 1%
N#CC(C#N)=Cc1ccc(-c2ccccc2F)o1 | nt | 5 | -30 | 6 | 27%
CC(=O)OCCNc1nc(-c2ccccc2)nc2ccccc12 | 1.0 | 8 | nt | -1 | -5%
O=c1c2ccccc2nc(CNCc2ccco2)n1-c1ccc(F)cc1 | 3.1 | 3 | -12 | 2 | 2%
Cc1ccc(C)c(Cn2c(=O)n(CCC(=O)NCc3ccco3)c(=O)c3sccc32)c1 | 0.6 | -16 | 23 | -11 | -2%
O=C(NNC(=S)NCc1ccco1)c1cccs1 | -1.6 | -1 | -34 | 11 | -1%
COc1ccc(Cn2c(=O)sc3ccccc32)cc1OC | 1.4 | -15 | -36 | 1 | 5%
Cc1sc(NC(=O)CSc2nnc(C(C)C)n2C)c(C#N)c1C | -2.1 | 0 | -24 | 8 | 5%
COc1ccc(CNCc2cn(-c3cccc(F)c3)nc2-c2ccc(C)o2)cc1 | -2.0 | 94 | nt | -29 | 6.1µM*
O=C(CCCn1c(=S)[nH]c2cc3c(cc2c1=O)OCO3)NCc1ccco1 | -4.8 | -2 | nt | -9 | 8%
Cc1cccc(-c2nsc(SCC(=O)N3CCCC3)n2)c1 | -1.3 | 100 | -3 | -10 | ?
Cc1nn(C)cc1CNC(=O)C1CCC(=O)N(Cc2cccc(C(F)(F)F)c2)C1 (stereo unspecified) | 0.5 | -3 | nt | nt | nt
Cc1ccccc1NC(=S)N1CCN(c2ccccc2C)CC1 | 0.0 | 6 | nt | nt | nt
CC(C)CNC(=O)C(=O)Nc1cc2c3c(c1)C(C)C(=O)N3CCC2 (stereo unspecified) | 0.4 | -1 | nt | nt | nt
CCOc1ccc(N(CC(=O)NCc2ccccc2)C(=O)CCC(=O)Nc2nccs2)cc1 | 2.8 | 20 | nt | nt | nt
O=[N+]([O-])c1ccc(NCCO)c2ncccc12 | 2.1 | 0 | -12 | -3 | -1%
CCOc1ccccc1NC(=O)CN1CCN(Cc2ccccc2)CC1 | 1.6 | 0 | nt | nt | nt
c1ccc(-n2nnnc2Sc2ncnc3sc4c(c23)CCCC4)cc1 | 3.9 | 5 | -12 | -16 | 5%
C=CCc1ccccc1OCC(O)CN1CCN(c2ccccc2OC)CC1 (stereo unspecified) | 1.4 | -3 | -62 | 4 | 7% | Arbovirus inh repeat=9
O=C(Nc1ccc(-c2cn3c(n2)SCC3)cc1)c1ccco1 | 2.9 | -9 | nt | nt | -9%
CC1(C)Cc2ccccc2-c2nnc(C(F)(F)F)n21 | -1.6 | -8 | -9 | 7 | 5%
Nc1ncn([C@@H]2O[C@H](CO)[C@@H](O)[C@H]2O)c(=O)n1 | -3.1 | -1 | nt | nt | nt
COCc1c(C(=O)N/N=C/c2ccncc2)nnn1-c1nonc1N | -0.3 | -5 | nt | nt | nt
COCc1c(Br)c(C)nc(OCC(=O)N/N=C/c2ccco2)c1C#N | 0.4 | -2 | nt | 0 | 4%
